PMP22 txn prim: Cell-based coincidence reporter assay to measure PMP22 gene transcription in S16 Pmp22-F2sN cells - Primary screen | S16 Pmp22-F2sN Schwann cells (luciferase reporters placed in the Pmp22 gene), FLuc/NLuc coincidence luminescence, 24 h | Potency, µM (top dose mostly 57.5 µM), for the others: top-dose activity change, negative = inhibition, most hits filed as inhibitors | hit rate 2% among 43,000; active = clear falling dose curves in both reporters; inconclusive = both reporters move, but less clearly or upward; inactive = either reporter flat; the % is the NLuc reporter signal; note: % is set by controls: 0 for no effect and ±100 for the full control effect; some results filed as inactive show a strong effect at the top dose
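Reporter cells (S16 Pmp22-F2sN, 500–1,000 per well) exposed to compounds for 24 h, 37C, 5% CO2; lysis with FLuc read after 10 min, then Stop&Glo and NLuc read after 10 min.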
HTT promoter inh: Primary qHTS for Identification of Small Molecule Inhibitors of Huntingtin Promoter Activity | hit rate 0.93% among 48,000 | HEK293 HTT promoter firefly luciferase reporter (activity 0% = vehicle and -100% = no light), 24 h | Potency, µM (series often up to 57.5 µM), for inactives: top-dose activity change, negative = inhibition, most hits filed as inhibitors; active = well fitted inhibition curve with a large enough effect; inconclusive = small, poorly fitted or top-dose-only effect; inactive = no such curve, though single readings can be large or run the other way; note: nearly all actives have a fitted effect of over 50% in size
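Firefly luciferase readout (Dual-Glo, 10 min RT) after 24 h, 37 °C compound exposure (final up to 57.5 uM) of HEK293 reporter cells cultured 24 h beforehand; PTC124 at 50 uM final as control inhibitor; activity scaled vehicle 0%, zero RLU -100%.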
An asterisk follows results filed as active; u = inconclusive; x = no result given; & = joins results of further samples; [ ] = dose if it differs, or a comment. Potency is the fitted concentration of half-maximal effect. An excerpt; the hit share may differ from the screen's.

SMILES | PMP22 txn prim | HTT promoter inh
CN(Cc1ccccc1)c1ccc(-c2nc(-c3ccncc3)no2)cc1[N+](=O)[O-] | -77% | u
Cc1cc(C)cc(NC(=O)c2cc(S(=O)(=O)N3CCCC3)ccc2F)c1 | -5% | u
Cc1cccc(C(=O)Nc2ccc(C(=O)OCc3cc(=O)n4c(C)csc4n3)cc2)c1 | u | u
COc1ccc(OC)c(CCNC(=O)CCc2cn(Cc3cc(C)ccc3C)c3ccccc23)c1 | u | u
COc1ccc(Nc2cc(C(=O)NCCCN3CCN(c4ccc(OC)cc4)CC3)c3ccccc3n2)cc1 | u | u
O=NN(CCCl)C(=O)NC1CCCCC1 | x | 15%&-2%
CC(C(=O)Nc1cccc(C#N)c1)n1nc(-c2ccccc2)c2c(c1=O)CCCC2 (configuration not stated) | -28% | -21%
CCn1cc(C(=O)NCc2ccccc2)c(=O)c2cc(S(=O)(=O)N3CCOCC3)ccc21 | -10% | -14%
O=C(C1CCCN(S(=O)(=O)c2cccs2)C1)N1CCN(c2ccccc2F)CC1 (configuration not stated) | u | u
O=C1C2=C(Nc3ccccc3SC2c2ccc(Cl)c(Cl)c2)c2ccccc21 (configuration not stated) | u | u
C[C@]12CCC(=O)C=C1CC[C@@H]1[C@@H]2C(=O)C[C@@]2(C)[C@H]1CC[C@]2(O)C(=O)CO | x | 9%
Cc1ccc(S(=O)(=O)c2nc(-c3cccs3)oc2N2CCC(C)CC2)cc1 | u | u
COc1ccc(C(=O)Nc2nnc(S(=O)(=O)N3CCCc4ccccc43)s2)cc1 | 7% | -1%
CCOC(=O)CSC1=Nc2ccccc2C2=NC(CCC(=O)NCc3ccc(OC)cc3)C(=O)N12 (configuration not stated) | -6% | -7%
CCOc1cccc2cc(-c3nc4sc5c(c4c(=O)[nH]3)CCC(C)C5)c(=O)oc12 (configuration not stated) | -24% | -7%
CCOc1ccc(NS(=O)(=O)c2c(C)nc3sc(C)c(C)n3c2=O)cc1 | u | u
COc1ccc(NC(=O)c2oc3ccccc3c2NC(=O)C2CCCCC2)c(OC)c1 | 0% | -9%
Cc1ccc(C)c(N2CCN(CCCNC(=O)Nc3cc(Cl)ccc3C)CC2)c1 | u | -14%
CC[C@@]1(c2ccccc2)NC(=O)N(C)C1=O | x | -3%
CCN(CC)C(=O)c1sc2c(c1C)c(=O)n(Cc1ccccc1)c(=O)n2Cc1ccc(Cl)cc1 | u | u

One compound at a time, from the list above. Order of screens: PMP22 txn prim | HTT promoter inh
`CCn1cc(C(=O)NCc2ccccc2)c(=O)c2cc(S(=O)(=O)N3CCOCC3)ccc21` as listed: -10% | -14%
`COc1ccc(OC)c(CCNC(=O)CCc2cn(Cc3cc(C)ccc3C)c3ccccc23)c1` as listed: u | u

Entries shown so far that have nitrogen in an aromatic ring (eleven):
SMILES | PMP22 txn prim | HTT promoter inh
CN(Cc1ccccc1)c1ccc(-c2nc(-c3ccncc3)no2)cc1[N+](=O)[O-] | -77% | u
Cc1cccc(C(=O)Nc2ccc(C(=O)OCc3cc(=O)n4c(C)csc4n3)cc2)c1 | u | u
COc1ccc(OC)c(CCNC(=O)CCc2cn(Cc3cc(C)ccc3C)c3ccccc23)c1 | u | u
COc1ccc(Nc2cc(C(=O)NCCCN3CCN(c4ccc(OC)cc4)CC3)c3ccccc3n2)cc1 | u | u
CC(C(=O)Nc1cccc(C#N)c1)n1nc(-c2ccccc2)c2c(c1=O)CCCC2 (configuration not stated) | -28% | -21%
CCn1cc(C(=O)NCc2ccccc2)c(=O)c2cc(S(=O)(=O)N3CCOCC3)ccc21 | -10% | -14%
Cc1ccc(S(=O)(=O)c2nc(-c3cccs3)oc2N2CCC(C)CC2)cc1 | u | u
COc1ccc(C(=O)Nc2nnc(S(=O)(=O)N3CCCc4ccccc43)s2)cc1 | 7% | -1%
CCOc1cccc2cc(-c3nc4sc5c(c4c(=O)[nH]3)CCC(C)C5)c(=O)oc12 (configuration not stated) | -24% | -7%
CCOc1ccc(NS(=O)(=O)c2c(C)nc3sc(C)c(C)n3c2=O)cc1 | u | u
CCN(CC)C(=O)c1sc2c(c1C)c(=O)n(Cc1ccccc1)c(=O)n2Cc1ccc(Cl)cc1 | u | u

Continued.
SMILES | PMP22 txn prim | HTT promoter inh
CCOC(=O)c1cc(-c2ccccc2)n(-c2cccc(C(=O)Nc3cccc(C)c3)c2)c1C | -12% | -20%
Cc1cccc(OC(C)C(=O)N2CCC(c3nc4ccccc4o3)CC2)c1C (configuration not stated) | -16% | -21%
Cc1ccc(CN(C(=O)c2ccc(C(C)(C)C)cc2)c2ccccn2)o1 | u | u
Cc1nc2nc(SCC(=O)NCc3ccccc3)nn2c(C)c1Cc1ccccc1Cl | -28% | -28%
CCOc1ccc(NC(=O)c2oc3ccccc3c2NC(=O)Cc2cccs2)cc1 | -26% | 2%
Cc1ccc(NC(=O)Cn2nc(C)c3nn(-c4ccc(Cl)cc4)c(C)c3c2=O)cc1C | -22% | -16%
CCOc1ccc2nc(N3CCCC(C(=O)Nc4ccccc4CC)C3)sc2c1 (configuration not stated) | -22% | 54%[activator]
O=C(NCCc1ccccc1)c1ccc(CSc2nc3cccnc3n2Cc2ccccc2)cc1 | -130% | -25%
CCOC(=O)c1cc2c(=O)n3ccccc3nc2n(C)c1=NC(=O)c1c(-c2ccccc2Cl)noc1C | -2% | -2%
COc1ccc(NC(=O)CCCN2C(=O)CCn3nc(-c4cn(C)c5ccccc45)cc32)cc1OC | 97% | 0%
COc1ccccc1CNc1nc2ccccc2c2nc(-c3cccc(C)c3)nn12 | -2% | 26%
CCOc1ccccc1NS(=O)(=O)c1c(-c2ccc(C)cc2)csc1C(=O)OC | u | u
COC(=O)c1cc(NC(=O)c2cc3sccc3n2Cc2ccc(Cl)cc2)cc(C(=O)OC)c1 | -8% | -14%
COc1ccccc1NC(=O)CSc1nnc(NC(=O)NC2CCCCC2)s1 | u | -2%
CCOc1ccccc1CNC(=O)c1cc2c(=O)n(Cc3ccccc3)ccc2nc1C | -13% | u
CCOC(=O)CN1C(=O)c2cccnc2Oc2ccccc21 | -14% | -15%
CCN(CC)S(=O)(=O)c1ccc(C(=O)NCCSc2c(-c3ccc(OC)cc3)[nH]c3ccccc23)cc1 | 3µM* | u
COc1cccc(-c2nn(C)c3sc(C(=O)NCc4ccc(OC)cc4OC)cc23)c1 | u | u
COc1ccc(-c2[nH]c(-c3ccccc3)nc2SCC(=O)Nc2ccc3c(c2)OCO3)cc1 | -20% | u
CCCN1CCN(CCCNC(=O)c2cc3c(Cl)nc4ccccc4c3s2)CC1 | 13µM* | -17%
Cc1cc(C)cc(NC(=O)CN(c2cc(C(F)(F)F)ccc2Cl)S(=O)(=O)c2ccccc2)c1 | -22% | -29%
O=C(CSc1oc(-c2ccc(F)cc2)nc1S(=O)(=O)c1ccc(Cl)cc1)c1ccccc1 | -55% | u
CC(=O)Nc1nonc1-c1nnc(SCC(=O)N(C)c2ccccc2)n1C | -2% | -29%
COC(=O)c1cc(Nc2nc3ccccc3nc2NS(=O)(=O)c2ccc(C)cc2)ccc1Cl | u | 21%
CC(C)c1ccc(NC(=O)CSc2ncc3c(n2)-c2ccccc2N(C)S3(=O)=O)cc1 | 39% | -30%
CCc1ccccc1N(C)C(=O)c1nn(C)c2c1CSc1ccccc1-2 | 7% | -3%
CC(C)(C)c1ccc(OCC(=O)N(Cc2ccco2)Cc2ccccc2F)cc1 | u | u
CCOC(=O)c1c(C)oc2nc(C)nc(NCc3ccccc3OC)c12 | u | u
COc1ccc(CNC(=O)c2ccc3c(Cl)c4c(nc3c2)CCCC4)c(OC)c1 | u | -13%
CCC1=C(c2ccc(C)cc2)S(=O)(=O)N=C1N1CCC(C(=O)Nc2ccccc2C(=O)OC)CC1 | u | u
O=C(NCc1cccs1)c1nn(-c2ccccc2Cl)nc1CO | -15% | 1%
CC(C)Cn1c(=O)c2sccc2n2c(CCCC(=O)NC3CCCCC3)nnc12 | -5% | -17%
CCCN(CCC)CCCNC(=O)C1CCN(S(=O)(=O)CC)CC1 | -6% | -17%
CN(C)CCN(Cc1ccccc1)S(=O)(=O)c1csc(C(N)=O)c1 | -16% | -9%
CCCCc1ccc(NC(=O)c2ccc(=O)n(Cc3cccc(C)c3)c2)cc1 | u | u
Cc1ccc(NC(=O)CSc2nc(-c3ccco3)cc(C(F)(F)F)n2)cc1C | u | u
CCC(=O)N1CCCc2cc(S(=O)(=O)N3CCC(C(=O)NC4CCC(C)CC4)CC3)ccc21 (configuration not stated) | -25% | u
COc1ccc(-c2nc(CS(=O)CC(=O)NCc3ccccc3OC)c(C)o2)cc1 (configuration not stated) | -9% | 4%
CCOC(=O)C1=C(CN(CC)Cc2ccccc2)NC(=O)NC1c1ccc(OC(C)C)cc1 (configuration not stated) | u | u
CCCNC(=O)CSc1c(CCC)cnc2c1c(=O)n(C)c(=O)n2C | -7% | -6%
Cc1ccc(NC(=O)NC(C)c2c(-n3cccc3)sc(C)c2C)cc1F (configuration not stated) | u | u
Clc1ccc(CCNc2ncnc3c2c(-c2ccccc2)cn3-c2ccccc2)cc1 | 4% | u
COc1cccc(NC(=O)Cn2c(=O)n(CCCCC(=O)NCc3ccccc3Cl)c(=O)c3ccccc32)c1 | u | -14%
COc1ccc(OC)c(NCc2cccn2-c2nnc(N3CCCCC3)s2)c1 | u | u
Cc1ccc(CNC(=O)CCC(=O)N2CCSc3ccccc32)cc1 | -10% | -17%
C=Cc1ccc(Cn2c(=O)n(-c3ccccc3C)c(=O)c3c4c(sc32)CN(C(C)=O)CC4)cc1 | u | -27%
Cc1ccc(-n2ncc3c(NCCCn4ccnc4)ncnc32)cc1C | u | 13%
COc1ccc2c(CNCc3cccs3)c(C(=O)O)n(Cc3ccc(C)cc3)c2c1 | 11% | -17%
Cc1ccc(Cn2nc(C)c(NC(=O)c3cc(-c4ccc(F)cc4)on3)c2C)cc1 | u | -20%
CC(C)CC(=O)Nc1cc(-c2ccccc2F)nn1-c1ccccc1 | 9% | u

(more compounds)
SMILES | PMP22 txn prim | HTT promoter inh
NS(=O)(=O)c1ccc(CCNC(=O)Cn2c(=O)c3cccn3c3ccc(F)cc32)cc1 | -4% | -1%
CCC(=O)Nc1ccc(S(=O)(=O)NCc2ccc3c(c2)CCN3C(=O)c2ccc(C)cc2)cc1 | u | u
CC(C)c1ccc(S(=O)(=O)c2nnn3c2nc(N2CCCCC2)c2sccc23)cc1 | u | 8%
CC(C)CCNS(=O)(=O)c1ccc(N2CCCCS2(=O)=O)cc1 | u | 14µM*
O=C(CO)[C@@H](O)[C@H](O)[C@@H](O)CO | x | 8%
Cc1ccc2occ(CC(=O)N(Cc3ccc(Cl)cc3)C3CCS(=O)(=O)C3)c2c1 (configuration not stated) | -12% | u
COc1ccccc1C(=O)N/C(=C\c1cn(S(=O)(=O)N(C)C)c2ccccc12)C(=O)NCCCn1ccnc1 | u | 5%
COc1cc(OC)c(OC)cc1CN1CCc2nc(Nc3ccc4c(c3)OCCO4)ncc2C1 | -16% | -19%
COc1ccc(NC(=O)Cn2c(=O)n(Cc3ccccc3OC)c(=O)c3cccnc32)cc1Cl | -17% | -27%
COc1ccc(C(=O)NCCn2cc(SCc3ccc(C(F)(F)F)cc3)c3ccccc32)cc1OC | u | u
O=C(Cn1cc(SCc2cccc(F)c2)c2ccccc21)N1CCOCC1 | 3% | 23%
COc1cccc(N2C(=O)CSC23C(=O)N(Cc2ccccc2F)c2ccccc23)c1 (configuration not stated) | -24% | u
COc1ccccc1S(=O)(=O)Cc1ccc(C(=O)N2CCN(c3cc(Cl)ccc3C)CC2)o1 | u | u
Cc1ccccc1Nc1c(-c2cccc(Cl)c2)nc2ncccn12 | -12% | -9%
O=C(c1cc(F)cc(F)c1)N1CCC(c2nc(-c3ccc(S(=O)(=O)N4CCCC4)cc3)no2)CC1 | -31% | -2%
O=C(NCCCN1CCN(c2cccc(Cl)c2)CC1)c1ccc2nc(Cc3ccccc3)oc2c1 | u | u
CCOc1ccc(NC(=O)CSc2ncc(S(=O)(=O)c3ccc(F)c(C)c3)c(=O)[nH]2)cc1 | -37% | -10%
Cc1ccc(C)c(NC(=O)CN(Cc2ccccc2)S(=O)(=O)c2ccc3nc(C)sc3c2)c1 | -21% | -21%
COc1ccc(-c2noc(CC(=O)Nc3ccc(Br)cc3C)n2)cc1 | 2% | -1%
COc1ccc(NC(=O)CCc2c(C)nn(-c3ccc(N4CCCC4)nn3)c2C)cc1Cl | -18% | 64%[activator]
Cc1ccc(Nc2c(-c3ccc(Cl)cc3)nc3sccn23)c(C)c1 | 0% | -17%
COc1ccc(CNC(=O)CN2C(=O)COc3ccc(S(=O)(=O)N4CCCCCC4)cc32)cc1 | 1% | -14%
Cc1nc(-c2cccc(NC(=O)Nc3ccccc3C(F)(F)F)c2)no1 | -15% | -8%
Cc1ccc(C)c(NC(=O)Cn2cc(S(=O)(=O)c3ccc(F)cc3)c(=O)c3cc(F)ccc32)c1 | -6% | -15%
Cc1c(Cl)cccc1NC(=O)CCN1C(=O)c2ccccc2Sc2ncccc21 | u | -18%
O=C(CSc1ncc(S(=O)(=O)c2ccc(Br)cc2)c(=O)[nH]1)Nc1ccc2c(c1)OCCO2 | -17% | 6%
O=C(CNC(=O)c1ccc(F)cc1)OCc1cc(=O)n2nc(C3CC3)sc2n1 | -9% | -8%
COc1cccc(OCC(=O)NCCS(=O)(=O)N2CCN(c3ccccc3F)CC2)c1 | -2% | u

Source: PubChem BioAssay
